Nrf2 block: blocks Nrf2 signaling. A549 ARE-Fluc reporter, luciferase luminescence, 18-24 h. Potency, µM (top dose mostly 46 µM), without a hit: top-dose activity change, negative = inhibition, hits mostly inhibitors. actives 2.1% (n = 360,000). AID 504444; note: potency is the fitted concentration of half-maximal effect; % is set by controls: 0 for no effect and ±100 for the full control effect; nearly all actives have a fitted effect of over 60% in size
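Two sequential reads on A549 ARE_Fluc cells exposed to compound for 18-24 h: a CellTiter-Fluor fluorescence read for viability, then a luciferase luminescence read for Nrf2/ARE activity.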
pAkt inh: Akt phosphorylation inhibition | Neuro2A IGF-stimulated pAkt S473 HTRF, 20 min; active compounds read low | activity change, % for hits at 50 µM | actives 0.32% (n = 360,000) | AID 651550; in the data active = activity change below about -80%; inconclusive = mostly about -51% to -80%; note: % is set by controls: 0 for no effect and ±100 for the full control effect
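Neuro2A cells (4,500/well, DMEM with 0.5% FBS) were treated with compound at a single 50 µM final concentration, stimulated with 6 nM IGF for 20 min at 37 °C, and lysed. Phospho-Akt Ser473 was read by HTRF as 665/615 ratio ×10^4.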
CCT modulator: changes cytosolic chaperonin activity. purified chaperonin ATPase assay, HTRF ADP detection, 30 min. activity change, % (concentration not given with the values), hits read low. actives 0.3% (n = 360,000); in the data active = activity change below about -30%; note: % is set by controls: 0 for no effect and ±100 for the full control effect
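First, chaperonin was dispensed at 40 nM or 20 nM final depending on batch activity. Next, compounds were pinned at 76 uM and ATP added at 10 uM. After 30 min at 37 °C, ADP detection reagents ran 30 min at ambient temperature.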
Nrf2 ARE act: activates Nrf2 signaling. Potency, µM (highest dose often 46.1 µM), for the others: at the top dose activation, hits mostly activators. actives 0.31% (n = 410,000). AREc32 ARE-luciferase reporter (MCF7-derived line), luminescence, 24 h; note: potency is the fitted concentration of half-maximal effect; % of control where 0% means no effect; nearly all actives have a fitted effect of over 65% in size
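For detection, Steady-Glo was added and plates sat 30 min at RT; before that, AREc32_Fluc cells grown overnight in OPTI-MEM/5% FBS had been treated with 23 nL compound for 24 hr at 37 deg C.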
A549 viability: A549 cytotoxicity, counter-screen for Nrf2 inhibitors | A549 ARE-Fluc cells, CellTiter-Fluor viability, 18-24 h | Potency, µM (top dose mostly 46 µM), without a hit: at the top dose activity change, negative = cytotoxicity, hits mostly inhibitors | actives 0.16% (n = 390,000); note: potency is the fitted concentration of half-maximal effect; % is set by controls: 0 for no effect and ±100 for the full control effect
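A549 ARE-Fluc cells in 5% FBS OPTI-MEM, 5000 cells/well, rested 2 h then exposed to compounds in concentration-response for 18-24 h at 37 °C. Viability by CellTiter-Fluor fluorescence (Ex 405/Em 525) after 30 min; luciferase luminescence (BugLite, 15 min, RT) read afterwards.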
MmCpn inh: inhibitors of Methanococcus maripaludis chaperonin (MmCpn); purified Mm-Cpn ATPase, ADP Transcreener TR-FRET; Potency, µM (series often up to 76.9 µM), for the others: at the highest dose activity, negative = inhibition, most hits filed as inhibitors; actives 0.031% (n = 330,000); note: potency is the fitted concentration of half-maximal effect; % is set by controls: 0 for no effect and ±100 for the full control effect; nearly all actives have a fitted effect of over 80% in size
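Purified archaeal chaperonin (25 nM final) was preincubated with compound for 10 min at 37°C, then ATP (10 uM final) was added for 30 min at 37°C in Tris pH 7.4/KCl/MgCl2/DTT buffer. ADP was quantified by HTRF Transcreener TR-FRET.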
TGFb SMAD3 inh: inhibitors of TGF-b signaling; HepG2 CAGA-GFP TGF-b/SMAD3 reporter, GFP fluorescence, 18 h; TGF-beta stimulated, 500 pg/mL final; actives 1.2% (n = 410,000); Potency, µM (highest dose often 46.1 µM), without a hit: at the top dose activity, negative = inhibition, usual class: inhibitors; note: potency is the fitted concentration of half-maximal effect; % is set by controls: 0 for no effect and ±100 for the full control effect; nearly all actives have a fitted effect of over 65% in size
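Smad-responsive CAGA-GFP expression was quantified in HEPG2 cells exposed to compounds and 500 pg/mL final TGF-beta for 18 h at 37 degrees C; unstimulated wells defined full inhibition.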
Numbers without * were called inactive; i = inactive; ? = inconclusive; · = not tested or not shown. Unless noted, calls come from the whole dose curve; as a rule, active = well fitted curve in the direction sought with a large enough effect; inconclusive = small, poorly fitted or top-dose-only effect, or another doubt; inactive = no such curve, though single readings can be large; an effect the other way counts as inactive or inconclusive. Only part of the results is shown, so the mix of outcomes need not match the whole.

SMILES | Nrf2 block | pAkt inh | CCT modulator | Nrf2 ARE act | A549 viability | MmCpn inh | TGFb SMAD3 inh
CS(=O)(=O)c1ccc(C(=O)OCC(=O)NC(=O)Cc2ccccc2)cc1 | 1.5% | i | -2.6 | -0.1% | -2.3% | -0.9% | 21.4%
Cc1ccc(C2CC(=O)NC3=C2C(=O)CCC3)cc1Br (stereo unspecified) | · | i | 0.9 | -0.6% | -21.8% | -1.9% | -1.2%
C=CCNC(=O)NC(=O)CSc1nnc(C(F)(F)F)n1C | -23.4% | i | 1.3 | -1.0% | 8.8% | 3.8% | 14.4%
O=C(/C=C/Nc1ccccc1)c1ccc(Oc2ncccn2)cc1 | 16.7% | i | -2.0 | 4.8% | -4.8% | 1.3% | 11.8%
Cc1cc2c(cc1S(=O)(=O)N(C)c1ccccc1)NC(=O)CO2 | -29.1% | i | 1.1 | 2.5% | -1.1% | -2.1% | -4.3%
COc1ccc2cc3cc(C(=O)NCCN4CCc5ccccc5C4)sc3nc2c1 | 1.1% | i | -0.3 | 2.1% | -2.1% | -0.1% | 2.5%
Cc1cccc(/C=C2/Sc3ccc(C(=O)N4CCOCC4)cc3NC2=O)c1 | ? | i | 0.5 | 1.1% | -0.1% | 1.3% | 8.9%
Cc1oc2cc(Br)c(O)c(Br)c2c1-c1ccccc1 | 13.8% | i | -0.6 | 4.2% | 5.4% | 1.6% | 10µM*
Cc1csc(NC(=S)Nc2cccc(Cl)c2)n1 | -1.9% | i | 2.9 | 12.1% | -2.9% | -7.6% | 8.91µM*
CC(NCCC(Cc1ccccc1)c1ccco1)c1ccccc1 (stereo unspecified) | 2.4% | i | 1.4 | 1.6% | 2.1% | -0.7% | 13.1%
O=C(c1ccccc1F)n1c2c(c3ccccc31)CCCC2 | 11.8% | i | -2.0 | -2.1% | -2.6% | -0.4% | -23.8%
COc1ccccc1-n1c(-c2cc(-c3ccc(F)cc3)n[nH]2)n[nH]c1=S | -17.3% | i | -3.0 | 3.4% | 3.3% | -3.1% | 15.8%
Cc1ccc(-c2c(NCCc3ccccc3)c(=O)c2=O)cc1 | 5.0% | i | -2.8 | 5.2% | 8.9% | 3.2% | -23.7%
CCOC(=O)N/N=C/C=C/c1ccccc1[N+](=O)[O-] | 2.6% | i | 1.0 | 0.2% | -3.8% | 1.0% | -3.5%
COc1cc(CC(=O)O)c(C(C)=O)cc1OC | -9.7% | i | -3.6 | -0.8% | -0.8% | -0.7% | -7.6%
COc1ccccc1C1/C(=C(/O)c2ccccc2)C(=O)C(=O)N1CC(C)O (stereo unspecified) | ? | i | 0.0 | -0.2% | 14.2% | 0.5% | 5.8%
Fc1ccc(-n2ncc3c(SCc4cccnc4)ncnc32)cc1 | ? | i | -1.1 | 2.1% | -12.7% | -1.5% | 3.0%
CCc1c(C)nc2c(C)cccc2c1SCCC#N | -14.4% | i | -0.3 | 2.2% | 10.5% | -1.5% | -7.2%
CSC1=N/C(=C\c2ccccc2Cl)C(=O)N1N(C)C | -2.5% | i | -4.0 | -0.1% | -0.1% | 2.8% | 0.0%
COc1ccc(N(C(C)=O)S(=O)(=O)c2cccc3cccnc23)cc1 | -20.4% | i | -3.7 | -0.3% | -1.2% | -0.1% | 3.5%
CCOC(=O)[C@@H](C)N(Cc1ccc(OC)cc1)S(=O)(=O)N(Cc1ccccc1)[C@H](C(=O)OC)C(C)C | ? | i | 0.6 | 0.7% | -3.3% | -4.4% | ?
Cc1nc2ccccc2c(-c2ccccc2)c1C(=O)c1ccccc1 | 23.1µM* | i | 0.4 | -0.9% | · | 1.0% | ?
Cc1ccc(-n2c(N)cc(=O)nc2SCC(=O)NC2CCCCC2)cc1C | -6.8% | i | -0.9 | 0.2% | -0.9% | -0.6% | -5.1%
CCC(C)N1CCCCC1C(=O)Nc1c(C)cc(C)cc1C (stereo unspecified) | 3.1% | i | 1.1 | -1.2% | 19.6% | 0.3% | 1.8%
CC(C)(C)OC(=O)N1CCCN(C(c2cc3ccccc3o2)c2nnnn2C(C)(C)C)CC1 (stereo unspecified) | · | i | -1.2 | 5.0% | · | · | ·
Further results follow:
SMILES | Nrf2 block | pAkt inh | CCT modulator | Nrf2 ARE act | A549 viability | MmCpn inh | TGFb SMAD3 inh
O=C(Nc1ccccc1Cl)c1ccccc1S(=O)(=O)c1ccccc1[N+](=O)[O-] | 15.7% | i | 0.1 | -0.1% | -2.2% | -2.5% | 1.7%
Cc1[nH]c2ccccc2c1C(=O)C(=O)N1CCN(C)CC1 | 1.4% | i | 0.8 | 3.7% | 1.9% | -1.8% | -7.7%
Cc1cccc(N/C=C/C(=O)c2ccc(Cl)cc2)c1 | ? | i | -0.2 | 17.5% | -1.6% | -14.1% | 19.1%
Cc1cccc(C)c1Nc1nnc(SCC(=O)NC(=O)c2cccn2C)s1 | -19.7% | i | 0.9 | 0.0% | 5.9% | -0.5% | -22.1%
CCCCn1nnnc1C(c1cc2ccccc2o1)N1CCCN(C(=O)OC(C)(C)C)CC1 (stereo unspecified) | · | i | -0.2 | 4.7% | · | · | ·
COC(=O)C1=NN(c2ccccc2)C2(S1)S/C(=C\c1ccccc1)C(=O)N2c1ccccc1 (stereo unspecified) | -12.3% | i | -3.1 | 0.1% | -2.1% | 0.5% | -5.0%
CC(=O)N/C(=C\c1ccccc1)C(=O)OC(C)C(=O)Nc1ccccc1F (stereo unspecified) | 0.0% | i | 2.1 | -0.2% | 1.7% | 1.0% | 2.2%
N#Cc1c(NC(=O)CSCC(=O)O)sc2c1CCCC2 | 2.4% | i | -0.1 | -0.8% | 0.9% | 1.8% | 4.0%
COC(=O)c1sc(SC)c2c1CC(C)(C)C/C2=N/O | -1.8% | i | -0.2 | -1.0% | 0.0% | -5.5% | -18.1%
C=CCC1(CC=C)CCCN1C(=O)c1cc(COc2ccc(F)c(F)c2)on1 | -14.4% | i | -2.2 | -0.4% | 1.2% | -0.9% | -22.4%
CC1CN(c2nc(-c3ccccc3)nc3ccccc23)CC(C)O1 (stereo unspecified) | -4.1% | · | -2.1 | 0.1% | 1.5% | 1.9% | -12.8%
COc1ccccc1CNC(=O)C1(C)CCN1Cc1ccc2ccccc2c1 (stereo unspecified) | · | i | 0.1 | 0.2% | · | · | ?
C[C@@H]1COc2cc(N(C)CCO)ccc2S(=O)(=O)N1 | · | i | 2.5 | -0.2% | · | · | ·
COc1cc(S(=O)(=O)N2CCC(C(N)=O)CC2)c(C)cc1C | -8.6% | i | -2.1 | -0.1% | -2.0% | 0.0% | -1.4%
COc1ccc(/C=N/Nc2cc(C)nc(-n3nc(C)cc3C)n2)cc1 | ? | i | -2.2 | 0.1% | -1.7% | 0.1% | 0.0%
CCCC[C@@H]1C=C(C(=O)O)[C@H](c2ccc(Cl)c(Cl)c2)N1S(=O)(=O)c1ccc(C)cc1 | ? | i | 0.1 | 2.8% | 5.1% | 4.5% | ?
CCCc1ccc(S(=O)(=O)NCC2CCCN2CC)cc1 (stereo unspecified) | 9.4% | i | -2.1 | -0.1% | 4.2% | -0.3% | 9.7%
Cn1ccc2c(-c3cccc(C=O)c3)cc3c(c21)C1CCC3O1 (stereo unspecified) | · | i | 1.9 | 1.2% | · | · | -1.0%
Cc1cc(C)c(NC(=O)C2CCCN2CCOC(=O)c2ccccc2)c(C)c1 (stereo unspecified) | 5.3% | i | -1.0 | 0.0% | -3.5% | 2.8% | -15.9%
C=CCSc1nc2ccccc2c(=O)n1Cc1ccccc1 | -10.9% | i | -1.2 | -0.5% | 16.4% | -0.2% | -22.7%
Clc1ccccc1-c1nc(-c2ccccc2)n[nH]1 | ? | i | 0.4 | 21.8% | -4.0% | 1.0% | 0.0%
Cc1[nH]c2ccccc2c1C(=O)C(=O)N1CCOCC1 | 16.3% | i | 0.5 | -0.1% | -1.5% | -0.3% | 6.6%
CC(=O)N1CCc2cc(C(=O)CN3CCN(C(=O)c4ccco4)CC3)ccc21 | 13.1% | i | -0.2 | 3.1% | 13.1% | 0.2% | -1.5%
CCCc1c(C)nc2ccccc2c1SCCC#N | ? | i | -0.2 | 9.5% | -4.7% | -5.1% | ?
COc1cccc(C(=O)COc2ccccc2N2C(=O)C3C4C=CC(C4)C3C2=O)c1 (stereo unspecified) | -7.8% | i | 0.4 | -0.1% | -4.9% | -13.8% | 0.0%
(listing goes on)
SMILES | Nrf2 block | pAkt inh | CCT modulator | Nrf2 ARE act | A549 viability | MmCpn inh | TGFb SMAD3 inh
CC(=O)c1cccc(S(=O)(=O)NC2CCSc3ccccc32)c1 (stereo unspecified) | -3.0% | i | -2.6 | 4.3% | 4.2% | 0.7% | -12.6%
COC(=O)C1=C(C)N(Cc2ccco2)C(=O)N[C@@H]1c1cccc(C(F)(F)F)c1 | · | · | · | · | · | 0.4% | ·
CCN1CCN(c2oc(/C=C/c3ccccc3)nc2C#N)CC1 | -0.3% | i | -2.5 | -0.8% | 1.7% | -9.6% | -5.2%
Cc1cc(C)c(NC(=S)N2CCCC2C(=O)O)c(C)c1 (stereo unspecified) | -1.6% | i | 0.5 | -0.4% | -0.9% | -4.1% | 1.9%
C[C@H](NC(=O)c1nc[nH]c1C(=O)N1CCc2ccccc2C1)C(=O)OC(C)(C)C | 6.5% | i | 0.4 | 1.4% | 1.8% | -1.4% | -7.4%
CCc1c(C)nc2ccc(Br)cc2c1SCCC#N | ? | i | -5.0 | 14.3% | -0.1% | -20.4% | ?
O=C(N[C@@H](Cc1ccccc1)C(=O)NCCc1c[nH]c2ccccc12)c1ccco1 | ? | i | -0.2 | 0.3% | 6.9% | 0.5% | -2.6%
COc1ccc(/C=N/NC(=O)c2cccc(C(=O)N/N=C/c3ccc(OC)cc3)n2)cc1 | -2.5% | i | -2.9 | 1.7% | 0.0% | -0.4% | 4.0%
CCOC(=O)c1cc(Br)c(=O)n2ccccc12 | -8.7% | i | -1.8 | 4.0% | -0.2% | 28.2µM* | -5.1%
COc1ccc2cc(C#N)c(N3CCN(Cc4nnnn4CCC(C)C)CC3)nc2c1 | ? | i | 0.1 | 0.0% | -4.9% | -2.4% | -7.0%

Full records as entered above.
COc1ccc(/C=N/NC(=O)c2cccc(C(=O)N/N=C/c3ccc(OC)cc3)n2)cc1 as listed: Nrf2 block = -2.5%; pAkt inh = i; CCT modulator = -2.9; Nrf2 ARE act = 1.7%; A549 viability = 0.0%; MmCpn inh = -0.4%; TGFb SMAD3 inh = 4.0%
CCc1c(C)nc2ccc(Br)cc2c1SCCC#N as listed: Nrf2 block = ?; pAkt inh = i; CCT modulator = -5.0; Nrf2 ARE act = 14.3%; A549 viability = -0.1%; MmCpn inh = -20.4%; TGFb SMAD3 inh = ?

High-throughput results as filed in PubChem BioAssay.
